NPYLR7 agonist: activates Aedes aegypti NPYLR7 receptor; hit rate 0.15% among 270,000; activation, % at 10 µM; HEK293T NPYLR7/Galpha15, GCaMP6s calcium fluorescence; in the data active = activation above about 40%;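 note: 0% = vehicle and 100% = reference agonist at the receptor; some compounds past the cut are filed as inactive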
NPYLR7 agonist max-min: recorded beside NPYLR7 agonist, whose call it bears; activation, %; measured here: Max-Min RFU normalised activation; some inactives read as strong as hits;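 span of the calcium signal over five minutes; 0% = vehicle and 100% = native peptide agonist; compound fluorescence can raise it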
An asterisk follows results filed as active; & = joins results of further samples.

Values in the order – NPYLR7 agonist | NPYLR7 agonist max-min
NS(=O)(=O)c1cccc(S(=O)(=O)Nc2cccc3cccnc23)c1
  10 | 9
CCN(CCn1cccn1)C(=O)c1ccc2nc(-c3cccc(OC)c3)oc2c1
  8 | 3
CNCC(=O)NCCc1nc(-c2ccccn2)no1
  9 | 7
Cc1ccc2c(c1)CCCN2S(=O)(=O)c1ccc2[nH]c(=O)oc2c1
  -2 | -5
Oc1c(CN2CCN(Cc3ccc4cccnc4c3O)CC2)ccc2cccnc12
  3 | 3
Cc1ccc(CN(C)C(=O)c2cc(C3CC3)nc3c2c(=O)[nH]n3C)c(C)c1
  1 | 0
N#Cc1ccc(Oc2ccc(N3C(=O)C4C5C=CC(C5)C4C3=O)cc2)cc1 (stereo not drawn)
  0 | -2
Cc1ccc(O)c(CN2CCC(C3(c4cccnc4)NC(=O)NC3=O)CC2)c1 (stereo not drawn)
  7 | 6
CCn1c(CN(C)Cc2cc(-c3ccncc3)no2)nc2ccccc21
  1 | -9
CC(c1ccc(F)cc1)S(=O)(=O)CC(=O)N(C)CC(F)(F)F (stereo not drawn)
  0 | 0
CCCCN1C(CCC)=NS(=O)(=O)c2cc(NC(=O)OC)ccc21
  21 | 9
CS(=O)(=O)c1c(N2CCOCC2)n[nH]c1N
  4 | 4
C=CCNc1ccc2c3c(cccc13)C(=O)N(c1ccccc1)C2=O
  99* | 87*
O=C(CCC(=O)c1ccc2c(c1)CCCC2)NC1CCN(Cc2ccccc2)CC1
  4 | 3
O=C(c1ccc(Br)cc1)N1CCCC(OCc2cccc(OC(F)(F)F)c2)C1 (stereo not drawn)
  -4 | -3
Cc1sc(N2C(=O)C3C4C=CC(C4)C3C2=O)c(C#N)c1C (stereo not drawn)
  5 | 1
CCn1nccc1C(=O)Nc1cc(C)nn1-c1ccccc1
  2 | 4
Cc1ccc2c(c1)N(Cc1nc(CCc3ccccc3)n[nH]1)C(=O)CO2
  12 | 8
COCC(=O)Nc1ccc(N2CCN(C(=O)C3C[C@H]3c3ccccc3)CC2)nc1 (stereo partly drawn)
  -10 | -11
Cc1ccccc1NC(=O)CCNC(=O)c1cc2n(n1)CCCN(C)C2
  9 | 8
CC(=O)OC[C@@]12C(=O)[C@@H](O)[C@@H](C)[C@]3(C[C@@H](c4ccoc4)O[C@@H]3OC(C)=O)[C@H]1CCC[C@]21CO1
  3 | 2
Nc1nccc(-c2ccc(F)cc2Cl)n1
  -5 | -5
CCc1cc[n+](-c2nc3ccccc3nc2C(C#N)C#N)cc1
  10 | 10
C(=C\c1ccccc1)/CN(Cc1ccco1)C1CCCC1
  5 | 2
c1ccc(-c2nc(N3CCCC3)nc(-n3ccnc3)n2)cc1
  -1 | -2
S=c1[nH]nc(C2(c3ccc(Cl)cc3)CCC2)n1CC1CCCO1 (stereo not drawn)
  -9 | -13
CC(C)CN1CCC1(C)C(=O)Nc1nccc2cccnc12 (stereo not drawn)
  2 | -1
Clc1ccc(CCN2COc3cc4c(cc3C2)OCO4)c(Cl)c1
  9 | 4
CC(C(O)=C(C#N)c1nc2ccccc2s1)N1C(=O)c2ccccc2C1=O (stereo not drawn)
  -6 | -8
CCOC(=O)c1c(C)c(C(=O)CN(C(=O)NC23CC4CC(CC(C4)C2)C3)C2CC2)c(C)n1CC
  -6 | 5
CC(C)OCC(O)CN(Cc1cccc(F)c1)Cc1ccco1 (stereo not drawn)
  31 | 35
O=C(c1ccco1)n1nnc2cc(Cl)ccc21
  4 | 2
O=C(Nc1nc2ccccc2s1)C1CCN(C(=O)c2ccco2)CC1
  6 | 9
CCn1cc(CNC(c2ccccc2)c2cccc(F)c2)cn1 (stereo not drawn)
  3 | 3
Cc1cccnc1C(NC(=O)C1CCN(CCOc2ccc(Cl)cc2Cl)CC1)c1ccccc1 (stereo not drawn)
  12 | 3
COc1ccccc1NC(=O)CCNC(=O)c1c(C)nc2sccn12
  9 | -7
COCC1CCN(C(=O)c2ccc3oc(CCCc4ccccc4)nc3c2)C1 (stereo not drawn)
  7 | 2
O/N=C1\c2ccccc2/C(=N/O)C1c1cccc2ccccc12 (stereo not drawn)
  -9 | -17
CC(CC(=O)OCCc1cccs1)c1cccnc1 (stereo not drawn)
  -1 | -2
CNC(=O)C1Cc2ccccc2N1C(=O)Nc1cccs1 (stereo not drawn)
  -14 | -18
CSc1nn(CN(C)CC(=O)Nc2ccc(Cl)cc2)c(=S)s1
  3 | 2
Cc1ccc(-c2cn3cccnc3n2)cc1NC(=O)C(C)C
  8 | 11
O=C(Oc1cccc2ccccc12)c1cccc(OC(F)F)c1
  2 | 2
O=C(c1ccc(F)cc1F)N1CCc2ccccc2C1c1ccccc1F (stereo not drawn)
  -5 | 3
COCCc1ncc(-c2nccn2-c2ccc(C)cc2Cl)cn1
  27 | 13
CCCC(Sc1nnc(N)s1)C(=O)OCC (stereo not drawn)
  11 | 16
Cc1sc2nc(CN3CCOCC3)[nH]c(=S)c2c1C
  1 | 5
COc1cc(N2CCC(O)(CN3CCCC3)CC2)ncn1
  2 | -9
O=C(NC(Cc1ccccc1)C(=O)Nc1ccccc1)c1ccncc1 (stereo not drawn)
  10 | 7
CCOC(=O)CNC(=O)Cn1c(-n2nc(C)cc2C)nc(C)c(CC)c1=O
  1 | -2
Cc1ccc2c(c1)SC(C)C(=O)N2Cc1ccc(OC(F)(F)F)cc1 (stereo not drawn)
  5 | 6
CCC(C)C(NC(=O)c1ccc(C)c([N+](=O)[O-])c1)C(=O)Nc1nnc(-c2cccc(Cl)c2)s1 (stereo not drawn)
  1 | 18
Cc1ccc(OCCSc2nc3ccccc3n2Cc2ccccc2)cc1
  -1 | -6
CC(C)N(Cc1nccn1C)C(=O)C(C)(C)n1cccc1
  -9 | -13
COCCNC(=O)C1(C)CCCN(Cc2cc(C)ccc2C)C1 (stereo not drawn)
  9 | 5
Cc1cc(C)cc(C(=O)Nc2c(C)nc3ccc(Cl)cn3c2=O)c1
  -3 | -2
Cc1noc(-c2ccncc2)c1C(=O)NCCOC(C)C
  14 | 18
CC(C(=O)N(C)C1(C#N)CCCCC1)N(C)CC(=O)Nc1ccc(F)cc1 (stereo not drawn)
  1 | 28
N#CCCNC(=O)c1ccc(-c2ccc(F)cc2)s1
  -1 | 11
CCSc1nc(CC(=O)N(C)Cc2n[nH]c3c2CCC3)cs1
  3 | 3

Reformatted: results already given.
mol	NPYLR7 agonist	NPYLR7 agonist max-min
O=C(c1ccc(F)cc1F)N1CCc2ccccc2C1c1ccccc1F (stereo not drawn)	-5	3
CC(C(O)=C(C#N)c1nc2ccccc2s1)N1C(=O)c2ccccc2C1=O (stereo not drawn)	-6	-8
CC(C)N(Cc1nccn1C)C(=O)C(C)(C)n1cccc1	-9	-13
Nc1nccc(-c2ccc(F)cc2Cl)n1	-5	-5
COCCc1ncc(-c2nccn2-c2ccc(C)cc2Cl)cn1	27	13
O=C(Nc1nc2ccccc2s1)C1CCN(C(=O)c2ccco2)CC1	6	9
Clc1ccc(CCN2COc3cc4c(cc3C2)OCO4)c(Cl)c1	9	4

Next part:
Values in the order – NPYLR7 agonist | NPYLR7 agonist max-min
Cn1c(=O)n(Cc2cccc3ccccc23)c(=O)c2c1nc1n2CCN1Cc1ccco1
  -10 | -12
COc1ccc([C@H](C)NC(=O)c2c(C)noc2-c2ccc3c(c2)OCO3)cc1
  6 | -1
COc1ccc(CCN(C)C(=O)C2CC[C@@H]3CCC[C@H]23)cc1OC (stereo partly drawn)
  -3 | -12
CCC(CC)NC(=O)C1CC(=O)CC1C(=O)NC(CC)CC (stereo not drawn)
  7 | 3
COc1cccc(C(=O)N2CCN(C(=O)Cn3nnnc3CN3CCCC3)CC2)c1
  -4 | -7
Cc1ccc(-n2nnn(C(F)F)c2=S)cc1
  7 | 5
COc1ccncc1-c1csc(C(O)c2ccccc2)n1 (stereo not drawn)
  6 | 3
O=C(c1cn(-c2ccccc2)nc1-c1ccccc1)N1CCCCC1
  0 | -1
COc1ccc(OC)c(NC(=O)CC(=O)N2CCCC2c2nc3ccccc3s2)c1 (stereo not drawn)
  2 | -1
CC(=O)c1cccc(CN2CCC(n3nccc3NC(=O)CCOc3ccccc3)CC2)c1
  1 | -1
COC(=O)C1=C(C)N=c2s/c(=C/c3cccc([N+](=O)[O-])c3)c(=O)n2C1c1ccccc1 (stereo not drawn)
  0 | -4
Cc1ccc2c(c1)C1(NCC(C)(C)S1)C(=O)N2Cc1ccc(F)cc1 (stereo not drawn)
  -5 | -1
COCCCn1ccc2c(cnc3nc(-c4cccnc4)nn32)c1=O
  5 | 9
COc1ccc(C2CC(=O)C3C(=Nc4ccccc4NC3c3ccc(Cl)cc3Cl)C2)cc1 (stereo not drawn)
  1 | -6
CCOC(=O)c1sc2ncnc(NCCN3CCOCC3)c2c1C
  2 | -5
Cc1cc(Br)ccc1C(=O)N1CCC(S(N)(=O)=O)C1 (stereo not drawn)
  2 | 0
Cc1c(C(=O)O)sc2ncnc(N(C)CCc3cn[nH]c3)c12
  5 | 2
O=C(O)CCCCCN1C(=O)C(=Cc2ccccc2OCC(=O)O)SC1=S
  -4 | -11
O=S(=O)(c1ccc(F)cc1)N1CCN(c2nccc(-c3cccc(C(F)(F)F)c3)n2)CC1
  8 | 4
Cc1ccc(C(=O)Oc2c(S(=O)(=O)c3ccccc3)c(C)nn2C(C)(C)C)cc1[N+](=O)[O-]
  1 | 43
CCOC(=O)C1(CCCc2ccccc2)CCN(C(=O)[C@H](CCSC)NC(C)=O)CC1
  15 | 13
CC(C)c1nc(-c2ccc(Cn3cnnn3)cc2)n(-c2ccccn2)n1
  37 | 20
CCOC(=O)c1cnc(-c2ccc(OC)cc2)nc1NCCCn1ccnc1
  -8 | -15
Cc1ccc(C(=O)N=Nc2c(O)n(CN3CCCCC3)c3ccccc23)cc1
  -5&1 | -7&-1
CCc1nc2c(OCc3ccc(C(F)(F)F)cc3)cccn2c1N(C)C(=O)C(C)C
  -1 | 3
CC(C)Sc1cc2c(cc1N)n(C)c(=O)n2C
  11 | 10
CCCOc1ccc(Cl)cc1C(=O)N(C)Cc1cnccn1
  12 | 7
Cc1ccc(-c2nc3cc(C)ccn3c2NC(=O)C2CCCC2)cc1
  -3 | 4
Cn1cc(C(=O)Nc2ccc(C(C)(C)C#N)cc2)cn1
  -1 | -2
O=C(OCCN1C(=O)c2cccc3c(N4CCCCC4)ccc(c23)C1=O)c1ccc(Cl)cc1Cl
  -11 | -23

2 of the compounds above, field by field:
Cc1cc(Br)ccc1C(=O)N1CCC(S(N)(=O)=O)C1 (stereo not drawn)
  NPYLR7 agonist = 2
  NPYLR7 agonist max-min = 0
Cc1c(C(=O)O)sc2ncnc(N(C)CCc3cn[nH]c3)c12
  NPYLR7 agonist = 5
  NPYLR7 agonist max-min = 2

Remaining list, next part.
Values in the order – NPYLR7 agonist | NPYLR7 agonist max-min
COc1ccc(N2COc3cc4c(cc3C2)OCO4)cc1
  14 | 9
COc1cccc2c1OCCCN(C(=O)[C@@H]1Cc3ccccc3N1)C2
  5 | 4
O=c1c2cnc3c(F)cccc3c2[nH]n1-c1ccccc1
  -5 | 3
CC(=O)C1=C(c2ccc(C(C)C)cc2)N(C(C)=O)n2c(C)nnc2S1
  4 | 1
Ic1ccc(C2CC(c3cccs3)n3nnnc3N2)cc1 (stereo not drawn)
  10 | 7
Cc1ccc(NC(=O)Cn2c(-n3nc(C)cc3C)nc(-c3ccccc3)cc2=O)cc1
  1 | 7
O=C(CCS(=O)(=O)c1ccccc1)N1CCN(c2nc3c(Cl)cccc3s2)CC1
  1 | 2
COC(=O)C1=NOC(C(=O)NCC(CC(C)C)N2CCOCC2)C1 (stereo not drawn)
  8 | 4
COc1cc(OC)cc(C(=O)Nc2cc3oc4ccccc4c3cc2OC)c1
  -6 | -7
CCn1c(=O)c2c(nc3n(CCO)c(C)cn23)n(C)c1=O
  13 | 8
COCC(COCCCN=C1NS(=O)(=O)c2ccccc21)OC (stereo not drawn)
  3 | 1
O=C(CCn1cnc2ccccc21)NN=Cc1ccccc1Cl
  8 | 1
O=C(Nc1ccc(N2CCN(C(=O)c3cccc4ccccc34)CC2)nc1)c1ccc(F)cc1
  -3 | 5
COc1ccccc1/C=C/C=C1\N=C(c2cc(Cl)ccc2OC)OC1=O
  -1 | 1
CNc1nc(C(=O)N(Cc2ccco2)C(C)C(C)C)cs1 (stereo not drawn)
  -2&-1 | -1&-5

Molecules from the list above containing bromine:
Values in the order – NPYLR7 agonist | NPYLR7 agonist max-min
O=C(c1ccc(Br)cc1)N1CCCC(OCc2cccc(OC(F)(F)F)c2)C1 (stereo not drawn)
  -4 | -3
Cc1cc(Br)ccc1C(=O)N1CCC(S(N)(=O)=O)C1 (stereo not drawn)
  2 | 0

(cont.)
Values in the order – NPYLR7 agonist | NPYLR7 agonist max-min
CN(C)c1ncnc2c1ncn2[C@H]1CN(Cc2ccccc2)C[C@@H](CO)O1
  13 | 15
CCOC(=O)C(Cc1ccc(Cl)cc1)NC(=O)c1ccc(Nc2cccc(C(F)(F)F)c2)nc1 (stereo not drawn)
  0 | -5
Cc1ccccc1NCC(=O)N/N=C/c1cccc(C)c1O
  -14 | -18
Cc1cccc(COCC2CN(C(=O)Cc3ccsc3)CCO2)c1 (stereo not drawn)
  27 | 25
NC(=O)Cn1nnc(-c2ccccc2Br)n1
  -8 | -10
O=C(Cc1csc(COc2ccc(Cl)cc2)n1)NC12CC3CC(CC(C3)C1)C2
  -3 | -4
Cc1noc(-c2ccncc2)c1C(=O)NCCCN1CCOCC1
  10 | 14
O=C(CCCOc1ccccc1)Nc1cc(-c2ccc(Cl)cc2)nn1-c1cc(Cl)ccc1Cl
  2 | 0

Not all compounds are listed (hit frequency here may not be typical).
